# Screening data (PubChem BioAssay)
# CDC25B CDK2 inh: human CDC25B-CDK2/CyclinA binding inhibition; z-score (concentration not given with the values); AID 1259370; P30305+P24941; 94,000 compounds, 0.72% hits; HTRF CDC25B-CDK2/CyclinA binding, anti-His/anti-Flag; hits give high values;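 further: score is relative to mean and SD of negative controls; strong numbers were not always called active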
# TAR Tat displ: HIV-1 TAR-Tat binding disruption; HIV-1 TAR RNA, Tat peptide displacement FRET; hits give high values; z-score (test concentration not listed); 100,000 compounds, 0.6% hits;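 further: score is relative to mean and SD of negative controls; some compounds called inactive have numbers as strong as hits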
# * = called active by the depositor; . = not tested or not shown.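 How the source made its calls: active means z-score from 3 up in half or more of its runs; inactive means the rest.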
canonical_smiles | TAR Tat displ | CDC25B CDK2 inh
CC(=O)C(C)(C)OC(=O)NCc1cccs1 | . | -1.8
CC1=NN(C(=O)C(C)C)C(O)(C(F)(F)F)C1 (stereo unspecified) | . | -2.47
Cc1noc(-c2ccc(C(F)(F)F)cc2)c1C(=O)NNC(=O)Nc1ccc(Cl)cc1 | . | 0.14
Nc1nc2c(c(=O)[nH]1)C[C@@H](CCc1ccc(C(=O)N[C@@H](CCC(=O)O)C(=O)O)cc1)CN2 | . | -1.57
CC1(C)CC(=O)C2=C(C1)Nc1nc(C(F)(F)F)nn1C2c1ccc(F)c(Br)c1 (stereo unspecified) | 0.38 | .
Cc1nn2c3ccccc3nc2c2ccccc12 | . | -0.42
CCc1ccc(C2N3CC4(C)CN2CC(C)(C3)C4O)cc1 (stereo unspecified) | 2.08 | -1.76
Cc1nn(C(=O)c2ccccc2)c(C)c1Oc1ccc(Cl)cc1 | . | -0.57
CC(=O)N1c2ccc(S(=O)(=O)N3CCC(C(=O)NC4CCCc5ccccc54)CC3)cc2CC1C (stereo unspecified) | 1.16 | .
Cc1nc2ccccc2c(=O)n1-c1cccc2ccccc12 | 9.89 | -1
Cc1ccc(CNC(=O)CCc2c(C)nn3cnnc3c2C)o1 | 0.82 | .
CCCn1c(=O)c2sccc2n2c(CCC(=O)N3CCN(C(=O)c4ccco4)CC3)nnc12 | -0.06 | .
CCCCCOC(=O)c1[nH]c2c(c1C)C(=O)CC(c1ccco1)C2 (stereo unspecified) | -0.57 | -0.46
Cc1ncc(-c2ccc(C)c(S(=O)(=O)NCc3ccc(N(C)C)cc3)c2)o1 | 0.61 | .
O=S(=O)(NCCc1csc2nc(-c3cccc(F)c3)nn12)c1ccccc1 | 2.05 | .
COc1ccc(N2CCN(c3nnc(-n4nc(C)cc4C)c4ccccc34)CC2)cc1 | 1.43 | .
O=C(O)C1c2ccccc2-c2ccccc21 | 1.53 | -1.35
CC(C)(C)NC(=S)N/N=C/c1ccccc1O | . | -1.06
Cc1nn(CC(O)Cn2c3c(c4ccccc42)CCN(C)C3=O)c(C)c1Br (stereo unspecified) | . | -0.8
Cn1c(=O)c2c(nc(N3CCCC3)n2Cc2ccc(F)cc2)n(C)c1=O | . | 0.53

# Single records, as listed above. Order of screens: TAR Tat displ	CDC25B CDK2 inh
# CC(C)(C)NC(=S)N/N=C/c1ccccc1O in the list: .	-1.06
# O=C(O)C1c2ccccc2-c2ccccc21 in the list: 1.53	-1.35
# COc1ccc(N2CCN(c3nnc(-n4nc(C)cc4C)c4ccccc34)CC2)cc1 in the list: 1.43	.

# The results go on:
canonical_smiles | TAR Tat displ | CDC25B CDK2 inh
O=C(O)Cc1c(C(=O)O)[nH]c2ccccc12 | 2.07 | -1.04
Cc1cc2c3c([nH]c2cc1S(=O)(=O)Nc1ccc(C(C)C)cc1)CCCC3=O | 0.77 | .
CSc1cccc(N2C(=O)N(Cc3ccccc3F)c3ccccc3S2(=O)=O)c1 | 1.8 | .
O=C(Cc1ccc([N+](=O)[O-])cc1)Nc1nccs1 | . | -1.47
CC(C)(C)c1ccc(OCCS(=O)(=O)c2nc3ccccc3[nH]2)cc1 | 0.27 | -0.23
CCC(C(=O)NCCCN1CCOCC1)n1nc(C)n2c(cc3occc32)c1=O (stereo unspecified) | 3.72 | -2.88
Cn1cccc1-c1cc2n(n1)CCC(=O)N2CCCC(=O)NCCC1=CCCCC1 | 0.01 | .
COCCN1C(=O)c2oc3ccc(F)cc3c(=O)c2C1c1ccc(O)c(OC)c1 (stereo unspecified) | 0.27 | -0.81
CCCOc1ccc(C2c3c(oc4ccccc4c3=O)C(=O)N2c2nncs2)cc1 (stereo unspecified) | 0.51 | -1.08
CCC1(C)Cc2ccccc2C(NC(=O)Nc2cccc(Cl)c2)=C1C#N (stereo unspecified) | 2.77 | 1.47
O=C(c1ccc(Br)cc1)N(Cc1ccc(Cl)cc1)Cc1ccco1 | 0.3 | -1.73
N#Cc1cnc(Sc2nnc(-c3ccncc3)n2-c2ccccc2)nc1N | . | -1.14
O=S(=O)(NCc1cccn1Cc1ccc(Cl)cc1)c1cccc(Cl)c1 | 3.15 | .
CCc1cc(C(=O)N(C2CCCCC2)C2CCCCC2)no1 | -0.29 | -1.37
COc1cccc2c1NC(c1ccc(Br)cc1)C1CC=CC21 (stereo unspecified) | -1.96 | -1.02
Brc1ccc(-c2cn3ccccc3n2)cc1 | 1.82 | -2.1
CC1N=C2c3ccccc3N=C(SCC(=O)Nc3ccccc3F)N2C1=O (stereo unspecified) | -0.42 | .
O=C(/C=C/c1cccs1)NC(=S)Nc1ccc(S(=O)(=O)Nc2cc(F)ccc2F)cc1 | . | -0.95
NC(=O)C1CCN(c2csc3ccccc3c2=O)CC1 | 1.29 | .
CCOC(=O)c1c(C)nn(-c2ccc(NC(=O)NS(=O)(=O)c3ccc(C)cc3)cc2)c1C | . | -1.96

# Shown with two lines to a compound: five of the compounds above
# Second line of a record: TAR Tat displ | CDC25B CDK2 inh
- O=S(=O)(NCc1cccn1Cc1ccc(Cl)cc1)c1cccc(Cl)c1
→ 3.15 | .
- NC(=O)C1CCN(c2csc3ccccc3c2=O)CC1
→ 1.29 | .
- CCc1cc(C(=O)N(C2CCCCC2)C2CCCCC2)no1
→ -0.29 | -1.37
- N#Cc1cnc(Sc2nnc(-c3ccncc3)n2-c2ccccc2)nc1N
→ . | -1.14
- O=C(/C=C/c1cccs1)NC(=S)Nc1ccc(S(=O)(=O)Nc2cc(F)ccc2F)cc1
→ . | -0.95

# (list continues)
canonical_smiles | TAR Tat displ | CDC25B CDK2 inh
CN(C)CCCN(C(=O)CCS(=O)(=O)c1ccccc1)c1nc2ccc(F)cc2s1 | 0.08 | .
CCc1ccc(C2c3c(oc4cc(C)c(C)cc4c3=O)C(=O)N2CCCN(C)C)cc1 (stereo unspecified) | -0.74 | 0.16
COc1ccc(OC)c(CNc2c(O)c(=O)c2=O)c1 | -0.22 | .
Fc1ccc(-c2cc(-c3nc(-c4ccc(Br)cc4)no3)[nH]n2)cc1 | 0.03 | .
COc1ccc(-c2cc(=O)c3c(=O)n(-c4ccccc4)[nH]c3[nH]2)cc1 | 0.05 | -3.28
CCc1nc2ccccc2nc1N1CCN(C(=O)Nc2ccccc2)CC1 | . | -2.03
COc1ccc(-c2[nH]nc3nc(-c4cc(OC)ccc4OC)cc(C(=O)O)c23)cc1 | 2.02 | .
CCCCCNC(=O)Cn1c(=S)[nH]c2ncccc2c1=O | . | -1.77
CC1C(C#N)=C(SCC(=O)c2ccc(Cl)cc2)NC2=C1C(=O)CC(C)(C)C2 (stereo unspecified) | 2.32 | -1.9
Cc1c(NC(=O)Nc2cccc3c2CCCC3)c(=O)n(-c2ccccc2)n1C | 0.77 | -0.94
NC(=O)Cn1nc2c3ccccc3n(Cc3ccccc3)cc-2c1=O | -0.59 | .
O=c1c(S(=O)(=O)c2ccccc2)cn(Cc2cccc(F)c2)c2ccc(F)cc12 | 2.44 | -1.35
CCOc1ccc(-n2ccnc2SCC(=O)Nc2nnc(C)s2)cc1 | . | -1.74
CCN(C1CCCCC1)S(=O)(=O)c1ccc(F)cc1 | -0.27 | -0.91
COC(=O)C1=C(OC(=O)c2ccc(F)cc2)c2ccccc2S(=O)(=O)N1C(C)C | 0.96 | -1.18
C=C1c2cc(C)c(C)cc2NC(=O)N1c1ccccc1 | -0.61 | -1.42
O=c1ccc(-c2ccc(S(=O)(=O)NCCCN3CCN(Cc4ccccc4)CC3)s2)n[nH]1 | 1.41 | .
CCOc1ccc2ncc(S(=O)(=O)c3ccccc3)c(Nc3cccc(OC)c3)c2c1 | -2.14 | -1
CC(C)c1ccc(NC(=O)CSc2nnnn2-c2ccc(N(C)C)cc2)cc1 | . | -2.84
O=C(c1cccs1)c1cn(CCOc2ccc(F)cc2)c2ccccc12 | 2.06 | 1.31
COc1ccc(C2=C(C)C(=NC(C)CCc3ccccc3)NS2(=O)=O)cc1 (stereo unspecified) | 1.47 | -1.63
COc1ccccc1C1CCN(Cc2c(C)[nH]c3ccccc23)CC1 | . | -0.4
Clc1ccccc1CSc1nnc(-c2cccs2)o1 | . | -0.83
Cn1cc(C(=O)N2CCN(c3ccc(F)cc3)CC2)c2c3ccccc3n(C)c2c1=O | . | -1.37
CCC(C)n1c(=O)c2sccc2n2c(CCCC(=O)N3CCN(c4ccccc4)CC3)nnc12 (stereo unspecified) | -0.58 | .
Cc1ccc(N2C(=O)C3N=NN(Cc4cc(C)ccc4C)C3C2=O)cc1 (stereo unspecified) | -0.58 | -1.75
Oc1ccccc1C1Oc2ccccc2C2CC(c3cccs3)=NN21 (stereo unspecified) | . | -0.55
COc1ccc(-c2cn3nc(SCC(=O)N4CCCC4)ccc3n2)cc1 | 1.12 | .
Cc1ccc(C)c2[nH]c(=O)c(CCNS(C)(=O)=O)cc12 | . | -1.91
Cn1cc(-c2cc3n(n2)CCCN3C(=O)CCC(=O)NCCC2=CCCCC2)c2ccccc21 | 3.75 | .
CC(NCc1ccc(Sc2ccc(Br)cc2)c([N+](=O)[O-])c1)C(=O)O (stereo unspecified) | . | -1.21
CN(C1CCCC1)C1CCN(C(=O)Nc2ccc(Cl)cc2)CC1 | 0.39 | -1.02
CC(=O)N1c2ccc(S(=O)(=O)N3CCC(C(=O)NC4CCC(C)CC4)CC3)cc2CC1C (stereo unspecified) | 0.85 | .
O=C(Nc1ccc(Cl)c(Cl)c1)n1ccc(C(F)(F)F)n1 | . | -1.66
CS/C(=N/S(=O)(=O)c1ccccc1)NNC(=O)c1ccc(Cl)cc1 | . | 0.38
Cc1nc2sccn2c(=O)c1S(=O)(=O)N1CCN(c2ccccc2F)CC1 | 2.45 | .
CCOc1ccc(-c2ccc(NS(=O)(=O)c3cc(C)c(C)cc3C)cc2)nn1 | 0.21 | .
C=Cc1ccc(CN2CCCN(Cc3ccccc3Cl)S2(=O)=O)cc1 | 1.96 | .
Fc1ccc(Nc2ncnc3scc(-c4ccccc4)c23)cc1 | 0.59 | .
CC1=C(C(=O)OCCOC(C)C)C(c2ccc(O)cc2)C2=C(CC(C)(C)CC2=O)N1 (stereo unspecified) | 0.55 | -1.42
CC1CCc2nc(SC3CC(=O)N(c4ccccc4)C3=O)c(C#N)cc2C1 (stereo unspecified) | . | -0.63
CCCNC(C)C(=O)Nc1ccccc1C (stereo unspecified) | 0.51 | -0.32
Cc1ccc(CNc2ccc(N3CCOCC3)cc2)s1 | 1.22 | 1.65
Nc1ncnc(NCc2ccco2)c1[N+](=O)[O-] | . | -0.84
CCCCCn1c(C2CC(=O)N(c3ccccc3)C2)nc2ccccc21 (stereo unspecified) | 1.77 | -3.15
O=C1CCCC2/C(=N/O)CCCC12 (stereo unspecified) | . | -1.72
O=C(c1cc2c(=O)oc3ccccc3c2s1)N1CCN(c2ncccn2)CC1 | . | 0.33
CN1CCc2nc3sc(C(=O)Nc4ccc(F)cc4)c(N)c3cc2C1 | -1.72 | 3.45
Cc1ccc(CNCc2ccccn2)s1 | 1.71 | -0.51
CCCOc1ccc(C2c3c(oc4ccc(Br)cc4c3=O)C(=O)N2CCCN(C)C)cc1 (stereo unspecified) | 0.55 | .

# Carrying on:
canonical_smiles | TAR Tat displ | CDC25B CDK2 inh
CCOC(=O)c1sc(N2C(=O)c3oc4ccccc4c(=O)c3C2c2ccc(Cl)cc2)nc1C (stereo unspecified) | 2.53 | -0.22
Cc1nc2sccn2c(=O)c1NC(=O)Cc1ccc(Cl)cc1 | 1.42 | .
Cc1cc2cc(CCNC(=O)C(C)C)c(=O)[nH]c2cc1C | . | -1.5
O=C(O)c1c(-c2ccccc2)c(-c2ccccc2)nc2ccccc12 | . | -1.94
O=C(CCc1nnc2ccc(NCc3ccc(Cl)cc3)nn12)Nc1ccc2c(c1)OCO2 | 0.07 | .
CC(C)OC(=O)CSc1nc2c(cc1C#N)CCC2 | -1.37 | -2.58
CN1CCc2c(sc(-n3cccc3)c2CNC(=O)Nc2cccc(F)c2)C1 | -7.63 | 1.57
Cc1cc(C)c2nc(NC3=NC(c4ccccc4)CC(=O)N3)nc(C)c2c1 (stereo unspecified) | 0.51 | 0.1
CCN(CC)c1ncnc2c1c(-c1ccccc1)cn2-c1ccc(OC)cc1 | . | -1.35
O=S(=O)(NCCc1csc(-c2cccc(F)c2)n1)c1cccc(F)c1 | 1.54 | .
CCCCCn1c(CN2CCCCC2C)nc2c1c(=O)n(C)c(=O)n2C (stereo unspecified) | 0.91 | -0.76
COc1cc(-c2nc3cc(Cl)ccc3c(=O)o2)ccc1OC(C)=O | 1.95 | 1
Cc1cc(Nc2ccccc2O)nc(C)n1 | -4.84 | -0.47
O=S(=O)(NCCc1csc2nc(-c3ccc(Cl)cc3)nn12)c1cccs1 | 1.07 | .
O=S(=O)(c1ccccc1)N1CCN(Cc2cccc(F)c2)CC1 | . | -0.56
O=C(Nc1nccs1)c1c(O)c2ccccc2[nH]c1=O | 0.93 | .
COc1ccc(NC(=O)N2CCCC2c2ccco2)c(OC)c1 (stereo unspecified) | 0.4 | -1.63
C=CCN1CC(c2nc3ccccc3n2Cc2ccc(C)cc2)CC1=O (stereo unspecified) | -1.12 | -1.62
O=C(NCCN1CCOCC1)c1ccc(N2CCSc3ccccc32)s1 | 1.16 | .
CCN1CCN(c2ccc(NS(=O)(=O)c3c(C)nc4sccn4c3=O)cc2Cl)CC1 | 0.85 | -1.77
OC(CN1CCN(Cc2c(F)cccc2Cl)CC1)Cn1ccc2ccccc21 (stereo unspecified) | . | 0.8
Fc1ccccc1CN1CCN(C2CCCCC2)CC1 | -0.65 | -0.17
CCc1nc(-c2csc(S(=O)(=O)N3CCC(C(=O)NCc4ccc(C)o4)CC3)c2)no1 | 1.87 | .
COC(=O)c1ccc(C2Nc3c(OC)cc(OC)cc3C3C=CCC32)cc1 (stereo unspecified) | 0.66 | -0.14
